Menin MLL FP FL – menin-MLL binding inhibition, fluorescein peptide. Fluorescence polarization, fluorescein-MLL peptide displacement from menin. FP activity change, % at 61.4 µM. 290,000 tested, under 10 active. AID 1766; inconclusive = falling polarisation curve, or a change in total fluorescence; inactive = total fluorescence flat and polarisation flat or rising; no compound was filed as active; the % refers to the polarisation; negative = inhibition;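 note: % of control where 0% means no effect; inhibitors lower the polarisation; unlabelled MLL peptide was the positive control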
Sfp inh – inhibitors of Bacillus subtilis Sfp phosphopantetheinyl transferase; 310,000 tested, 3.5% active; Biochemical Sfp PPTase activity, qHTS; Potency, µM, inactives show max response, negative = inhibition, hits mostly inhibitors; AID 1490; Q9F4F7; active = well fitted inhibition curve with a large enough effect; inconclusive = small, poorly fitted or top-dose-only effect, or another doubt; inactive = no such curve, though single readings can be large or run the other way;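 note: the enzyme is Sfp with the accession as filed and its product quenches rhodamine fluorescence; potency is the fitted concentration of half-maximal effect; 0% = enzyme reaction without inhibitor and -100% = no enzyme wells; top concentration of the series not given in the record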
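Step 1, compound plus 15 nM Sfp-PPTase, 15 min, room temperature. Step 2, add rhodamine-CoA (5 uM) and BHQ-2-YbbR (12.5 uM). Step 3, read 525/598 nm fluorescence at 0 and 30 min.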
TRPV1 potentiator – enhances activation of the human vanilloid receptor TRPV1; TRPV1-expressing cells, Fluo-8 calcium influx, capsaicin EC20 potentiation; host cell line not named in the record; control for the full effect not named in the record; 320,000 tested, 0.02% active; Q8NER1; potentiation, % at 8.33 µM; active means potentiation above 80%; inconclusive means 30% to 80%; inactive means below 30%; note: 0% is about no effect
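Cells expressing TRPV1 were dye-loaded with Fluo-8 and read kinetically: 10 s baseline, 3 min after compound (agonist portion), then 2 min after EC20 capsaicin (allosteric enhancer portion). Calcium-bound dye fluorescence at 480/520 nm.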
gsp antag – gsp mutant antagonism | gsp-mutant cells, cAMP HTRF, 30 min; control for the full effect not named in the record | Potency, µM (series often up to 76.9 µM), without a hit: at the highest dose activity change, negative = inhibition, most hits filed as inhibitors | 340,000 tested, 0.4% active | AID 624288; active = falling curve of any shape with a large fitted effect; inconclusive = falling curve, mostly with a smaller effect; inactive = flat or rising curve; cell line not stated here;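 note: intracellular cAMP measured with PDE inhibitor Ro 20-1724 present during compound exposure; potency is the fitted concentration of half-maximal effect; % is set by controls: 0 for no effect and ±100 for the full control effect; nearly all actives have a fitted effect of over 65% in size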
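Cells in G418 medium, seeded 16-24 h, 37C; buffer exchange to DPBS + 1 mM CaCl2, 0.5 mM MgCl2, 0.05% BSA; cpds in DMSO + […] (300 uM stock), 30 min 37C; HTRF cAMP detection.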
ClpP mod – qHTS Assay for Activators of ClpP | 340,000 tested, 1.9% active | Potency, µM (doses to about 57.5 µM), without a hit: at the top dose activity change, negative = active | AID 651965, 2013 | purified B. subtilis ClpP, FRET peptide cleavage, 20 min | ATP-dependent Clp protease proteolytic subunit (Bacillus subtilis (strain 168)), P80244; active = well fitted falling curve with a large enough effect; inconclusive = small, poorly fitted or top-dose-only effect; inactive = no such curve, though single readings can be large or run the other way; note: potency is the fitted concentration of half-maximal effect; the source files actives as falling curves though it sought activators and does not explain the sign; nearly all actives have a fitted effect of over 65% in size; many hits overshoot -100%
Target sequence (P80244 whole entry, looked up): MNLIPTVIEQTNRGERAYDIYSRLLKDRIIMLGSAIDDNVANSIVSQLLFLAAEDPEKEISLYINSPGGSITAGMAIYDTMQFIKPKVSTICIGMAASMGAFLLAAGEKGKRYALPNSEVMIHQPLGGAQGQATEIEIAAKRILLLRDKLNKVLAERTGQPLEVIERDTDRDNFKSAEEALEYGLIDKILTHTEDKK
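ClpP 10 microg/mL final, pH 8 Tris/KCl buffer with BSA, glycerol, Tween-20; compound pinned in; FRET-FV substrate; RT 20 min; Ex320/Em430; ΔFRET vs ADEP 5.8 microM, DMSO, no enzyme.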
D2 PAM – human D2 receptor positive allosteric modulation | 360,000 tested, 0.23% active | DiscoveRx D2 beta-arrestin cells, luminescence, 90 min; 100% = 57 uM dopamine signal | P14416 | potentiation, % (concentration not given with the values); active = potentiation of 50% or more; inconclusive = 30% to 50%; inactive = 30% or less;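 note: compound concentration not given in the record; tested on top of an EC20 dose of dopamine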
Target sequence (P14416 whole entry, looked up): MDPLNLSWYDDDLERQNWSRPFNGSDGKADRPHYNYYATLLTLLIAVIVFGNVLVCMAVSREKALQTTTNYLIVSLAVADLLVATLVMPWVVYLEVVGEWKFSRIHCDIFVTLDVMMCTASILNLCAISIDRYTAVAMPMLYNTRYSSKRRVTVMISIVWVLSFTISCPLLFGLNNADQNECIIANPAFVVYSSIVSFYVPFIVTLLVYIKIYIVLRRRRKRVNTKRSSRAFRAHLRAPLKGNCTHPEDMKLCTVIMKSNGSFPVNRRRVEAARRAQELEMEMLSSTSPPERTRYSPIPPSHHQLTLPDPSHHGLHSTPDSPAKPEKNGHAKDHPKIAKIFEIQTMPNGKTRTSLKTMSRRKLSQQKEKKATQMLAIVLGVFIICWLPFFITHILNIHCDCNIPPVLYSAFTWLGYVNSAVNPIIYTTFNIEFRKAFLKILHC
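D2 cells co-treated with compound plus 50 nM dopamine (EC20) for 90 min at 37 deg C to detect potentiation. Beta-arrestin recruitment was read as enzyme-fragment luminescence after 1 h at ambient temperature. Full response was set by 57 uM dopamine.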
gsp ag – activates gsp, the McCune-Albright syndrome mutation | gsp mutant cells, cAMP HTRF, 30 min; control for the full effect not named in the record | Potency, µM (top dose mostly 76.9 µM), without a hit: at the highest dose activation (cAMP increase), usual class: activators | 340,000 tested, 0.13% active | AID 624287; active = well fitted activation curve with a large enough effect; inconclusive = small, poorly fitted or top-dose-only effect, or another doubt; inactive = no such curve, though single readings can be large or run the other way; cell line not stated here;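 note: phosphodiesterase inhibitor Ro 20-1724 added with compounds to block cAMP breakdown; potency is the fitted concentration of half-maximal effect; nearly all actives have a fitted effect of over 60% in size; about a fifth of the inactives were tested at one dose only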
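Cells stably selected in G418 were plated at 2000/well, grown 16-24 hr, then given compounds in DMSO with the PDE inhibitor […] (300 uM solution added) for 30 min at 37C; cAMP was read by HTRF.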
Numbers without * were called inactive; ? = inconclusive; · = no result given; & = joins results of further samples; [ ] = remark or other dose.

SMILES	Menin MLL FP FL	Sfp inh	TRPV1 potentiator	gsp antag	ClpP mod	D2 PAM	gsp ag
COc1ccc(-c2ccccc2)cc1NCc1ccc(OC)c(OC)c1	6.4	?	26.1	6.1%	28.2µM*	4.7	-53.6%
COC(=O)C1=C(C)N=C2SCCC(=O)N2C1c1ccc(OC(=O)c2ccco2)cc1 (stereo not given)	-1.3	-10.5%	-29.0	11.6%	1.2%	7.0	4.1%
CC(C)(C)c1nnc2sc(SCC(=O)c3ccc4c(c3)OCCO4)nn2c1=O	-0.2	-6.0%	1.0	-8.6%	-2.7%	-3.5	-11.9%[15.4 µM]
Cc1nnc(SCC(=O)NCc2ccccc2)s1	-0.7	16.5%	-9.6	2.6%	?	7.6	2.4%
CN(C)S(=O)(=O)c1ccc(NCC2COc3ccccc3O2)c([N+](=O)[O-])c1 (stereo not given)	4.1	14.4%	-15.5	-3.1%	-2.2%	-4.5	0.0%
NC(=O)c1ccc(Nc2nnc(-c3ccc(O)cc3)c3ccccc23)cc1	-4.1	-8.1%	-11.5	0.6%	-1.7%	-4.4	-22.3%[15.4 µM]
COc1ccc(CNS(=O)(=O)c2cc3c4c(c2)C(C)C(=O)N4CCC3)cc1 (stereo not given)	2.7	3.9%	13.4	-5.4%	-1.3%	-5.5	1.3%
CCOC(=O)c1cnc2c(c(C)nn2C)c1Oc1ccc(OC)cc1	-0.4	2.0%	-11.2	2.2%	-0.9%	-11.1	8.0%
COc1ccc(N2C(=O)CC(N3CCN(c4nc5ccccc5s4)CC3)C2=O)cc1 (stereo not given)	2.2	-5.1%	3.5	-15.2%	-0.5%	-4.1	-27.4%
Cc1c(C(=O)C(=O)N2CCN(Cc3ccc4c(c3)OCO4)CC2)c2ccccc2n1C	-4.5	3.4%	-2.3	-1.0%	-1.8%	-15.2	-3.5%
C/C(CC(=O)NCc1ccccc1)=N\NC(=O)c1cnccn1	1.4	?	-3.8	-6.5%	1.0%	2.0	?
CCS(=O)(=O)n1nc(NCc2cccc(OC)c2)nc1NCc1cccc(OC)c1	1.2	-2.7%	9.1	3.7%	-0.8%	9.1	-38.7%[inhibitor]
COc1ccc(OCC(=O)Nc2cc(NC(=O)c3ccco3)ccc2OC)cc1	1.6	-4.5%	-13.4	-10.4%	·	-4.9	?
O=C1C2C(c3ccccc3)CC=CC2[C@H](c2ccc3ccccc3c2)N1Cc1ccccc1 (stereo not given in full)	-1.7	-4.5%	19.9	-6.6%	-11.2%	-14.5	·
O=C(Nc1ccc(C(=O)N2CCCC2)cc1)c1ccccc1	·	·	·	0.9%	-1.0%	1.6	·
O=C(CC(Nc1ccc(F)cc1)C(=O)O)c1ccccc1 (stereo not given)	6.1	2.24µM*	-9.4	1.4%	-0.5%	8.1	-4.9%[15.4 µM]
O=C(CSc1nc2ccccc2o1)N/N=C/c1ccccc1	1.3	-1.7%	21.3	-10.0%	-1.0%	-18.9	-26.8%
O=C(CN1CCOCC1)N(c1ccccc1)c1ccc2ccccc2c1	1.8	6.8%	0.0	5.8%	-4.5%	1.5	-41.4%[inhibitor]
CCOc1ccc(NC(=O)CCSc2nnc(C)s2)cc1	0.7	16.1%	?	21.2%	1.8%	-5.8	?
COc1ccc(C(=O)NC(=S)N(Cc2ccccc2)Cc2ccccc2)cc1	0.3	4.6%	-11.8	-10.5%	-0.5%	-12.3	-1.7%
Cc1cc(/C=N/n2cnnc2)c(C)n1-c1ccc(C(=O)O)cc1	0.5	21.1%	0.6	6.3%	1.8%	-2.6	12.6%
O=c1[nH]nc(Cc2ncc(C(F)(F)F)cc2Cl)c2ccccc12	-0.1	12.3%	1.9	-1.8%	·	-1.7	-1.5%
COc1ccc(OC)c(N(CC(=O)NC2CCCC2)S(=O)(=O)c2ccc(OC)c(OC)c2)c1	·	7.0%	-0.4	-17.0%	1.0%	-29.5	-6.2%[15.4 µM]
Cc1ccccc1C(=O)Nn1c(C)ccc1C	0.2	?	-2.2	·	·	·	·
O=C(Cc1ccc(-n2cnnn2)cc1)NC12CC3CC(CC(C3)C1)C2	-5.3	-0.4%	-4.4	-2.3%	-0.9%	-11.7	-38.0%[inhibitor]

Overlap with the part before: 6 compounds, followed by the next part.
SMILES	Menin MLL FP FL	Sfp inh	TRPV1 potentiator	gsp antag	ClpP mod	D2 PAM	gsp ag
COc1ccc(C(=O)NC(=S)N(Cc2ccccc2)Cc2ccccc2)cc1	0.3	4.6%	-11.8	-10.5%	-0.5%	-12.3	-1.7%
Cc1cc(/C=N/n2cnnc2)c(C)n1-c1ccc(C(=O)O)cc1	0.5	21.1%	0.6	6.3%	1.8%	-2.6	12.6%
O=c1[nH]nc(Cc2ncc(C(F)(F)F)cc2Cl)c2ccccc12	-0.1	12.3%	1.9	-1.8%	·	-1.7	-1.5%
COc1ccc(OC)c(N(CC(=O)NC2CCCC2)S(=O)(=O)c2ccc(OC)c(OC)c2)c1	·	7.0%	-0.4	-17.0%	1.0%	-29.5	-6.2%[15.4 µM]
Cc1ccccc1C(=O)Nn1c(C)ccc1C	0.2	?	-2.2	·	·	·	·
O=C(Cc1ccc(-n2cnnn2)cc1)NC12CC3CC(CC(C3)C1)C2	-5.3	-0.4%	-4.4	-2.3%	-0.9%	-11.7	-38.0%[inhibitor]
Cc1nc(NC(=O)CSc2nnnn2Cc2ccccc2)sc1C	1.2	-1.1%	1.4	1.3%	0.4%	-17.7	3.0%
O=C(Cn1c(C(F)(F)F)nc2ccccc21)N=Nc1c(O)[nH]c2ccc(Br)cc12	-0.9	4.1%	9.0	0.8%	1.2%	-6.8	-19.4%
Cc1ccc(S(=O)(=O)Oc2ccc(/C=C(/NC(=O)c3ccccc3)C(=O)NC(C)C(=O)O)cc2)cc1 (stereo not given)	-2.4	5.5%	4.3	5.5%	0.1%	-25.7	-6.7%
CCOCCCNC(=O)C(NC(=O)c1ccc2c(c1)OCO2)c1ccccc1 (stereo not given)	1.0	23.5%	-1.8	-2.3%	·	-2.9	-12.7%[15.4 µM]
O=P(c1ccccc1)(c1ccccc1)c1cc(S(=O)(=O)O)ccc1O	-2.1	-12.4%	0.7	7.7%	1.3%	-8.0	3.2%
Nc1nonc1C(=O)NCCNC(=O)c1ccc(Cl)cc1	3.2	24.9%	11.9	-0.6%	·	-7.0	26.4%[15.4 µM]
O=CN1CCN(C=O)C(O)C1O (stereo not given)	·	·	·	3.3%	-1.3%	2.8	6.6%
Cn1nnc2sc3c(c2c1=O)CCCC3	4.8	50.1µM*	-3.0	14.1%	0.0%	-7.2	-33.8%
CCC(C)n1c(SCC(=O)Nc2ccc3[nH]c(=O)[nH]c3c2)nc2ccccc2c1=O (stereo not given)	·	·	9.6	15.7%	?	20.9	-16.2%
C=CCNC(=S)Nc1cc(Cl)ccc1OC	-0.4	-10.1%	0.3	2.4%	3.2%	-21.2	0.0%
CC1=CC2=NC(=O)CC(C)(C(=O)N(CC(=O)NC(C)(C)C)C3CCCC3)N2C=C1 (stereo not given)	6.1	0.8%	5.9	10.9%	31.6µM*	3.0	-8.3%
COc1ccccc1C(=O)NNC(=O)c1ccc(O)cc1	·	·	·	·	-1.2%	0.6	2.0%
CC(=O)c1c(C)[nH]c(C(=O)CSc2nnc(-c3ccc(Cl)cc3)n2CC2CCCO2)c1C (stereo not given)	3.6	10.4%	-7.6	-15.8%	-2.9%	1.3	26.1%
O=C(CCCN1C(=O)/C(=C\c2ccccc2)SC1=S)N1CCOCC1	·	·	·	-12.2%	-1.1%	-2.7	-9.2%
O=C(CSc1nncs1)Nc1ccc(N2CCCCC2)cc1	·	·	-2.1	-7.0%	-0.7%	-7.9	3.8%
CCCN1C(=O)C(=O)N(CC(=O)N2c3ccccc3NC(=O)CC2C)C1=O (stereo not given)	·	·	·	·	0.0%	-3.9	21.7%
CCc1nc(SCC(=O)NCc2ccc(F)cc2)c2c(=O)n(C)c(=O)n(C)c2n1	2.2	8.4%	8.7	3.7%	-1.1%	2.4	-46.5%[inhibitor]
Cc1cc(C)cc(C(=O)NCC(=O)NNC(=O)CSc2ccccc2F)c1	·	·	24.2	-5.9%	0.2%	-2.7	1.6%
COCCNC(=O)c1cc(OC)c(OC)cc1[N+](=O)[O-]	-3.3	26.9%	3.0	-7.6%	-1.9%	-2.6	-14.4%
COc1ccc(OC)c(S(=O)(=O)CC(=O)c2cc3ccc(OC)cc3oc2=O)c1	·	-9.7%	?	6.8%	1.1%	-1.0	-28.0%
N#Cc1nc(-c2cccs2)oc1NCCc1ccccc1	4.8	-27.8%	-11.2	0.1%	?	-15.2	?
CCOC(=O)N1CCN(S(=O)(=O)c2cc(OCC(N)=O)c(C)cc2Cl)CC1	-0.6	2.3%	-1.9	6.4%	-0.6%	-15.8	0.0%
COc1ccccc1-c1ccc(Nc2cccc(C(F)(F)F)c2)nn1	3.1	16.6%	?	-3.2%	-2.6%	-16.3	?
Cn1c(N)c(C(=O)COC(=O)COc2ccccc2Cl)c(=O)n(C)c1=O	·	·	14.9	3.0%	-2.1%	7.5	?
Clc1ccc(COn2ccnc2)cc1Cl	-0.8	12.5%	4.2	-1.9%	-1.2%	-5.0	0.3%
CN(C)S(=O)(=O)c1ccc(N2CCCC2)c(C(=O)OCC(=O)N2CCN(c3ccccc3)CC2)c1	·	·	-8.5	4.6%	-4.2%	-1.2	4.8%
CCC1CN(C(=O)NCc2cccc(OC)c2)c2ccccc2O1 (stereo not given)	-2.6	7.2%	-15.4	-9.6%	1.0%&-3.6%	0.6	6.3%

Source: PubChem BioAssay (National Center for Advancing Translational Sciences (NCATS))
